# UCH37 inh – human UCH37 deubiquitinating enzyme inhibition. Q9Y5K5. purified proteasome/UCH37, Ub-AMC cleavage fluorescence. inhibition, % (concentration not given with the values). 330,000 compounds, 0.33% hits. AID 588478;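 active means mean of two replicates above 20%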;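 further: 0% = compound-free wells with enzyme and 100% = wells lacking proteasome; stock transfer was 100 nL into about 20 µL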
#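 Material: human UCH37 enzyme supplied as purified proteasome complex. Measure: % inhibition of Ub-AMC cleavage fluorescence. Medium: pH 7.4 Tris-HCl (50 mM) with ovalbumin, ATP-MgCl2, DTT. Times: 30 min preincubation with enzyme, 25 min cleavage at room temperature. Detection: AMC fluorescence intensity at 355/460 nm.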
# T cruzi repl – T. cruzi replication inhibition; 300,000 compounds, 1.4% hits; inhibition, % (no concentration beside the values); T. cruzi beta-gal in NIH3T3, luminescence, 90 h; AID 1885;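 active means mean inhibition across valid replicates above about 55%, limit read from the data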;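 further: signal also drops with host cell toxicity which is not excluded here; 0% = plate median of DMSO wells and 100% = zero luminescence signal; higher percent means less beta-gal luminescence so fewer parasites; stock transfer was 50 nL into about 50 µL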
# LANA-H2A inh – blocks KSHV LANA binding to histone H2A/H2B | Q9QR71 | cell-free LANA-H2A/H2B peptide, fluorescence polarization | inhibition, % (concentration not given with the values) | 320,000 compounds, 0.6% hits | AID 2629; in the data active means inhibition mostly above about 10%, no sharp cut-off; inactive means mostly below about 6.7%;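 further: stock transfer was 7.5 nL into about 10 µL; 0% = median of vehicle wells and 100% = median of positive control wells; one replicate is shown; the record names a cut of 25% in any replicate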
# Beta2AR agonist – agonists of human beta-2 adrenergic receptor inducing internalization. P07550. Am2.2-beta2AR cells, FAP receptor internalization, flow cytometry; reference of the scale not given here. response, % (concentration not given with the values). AID 504454. 340,000 compounds, 0.43% hits;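 active means response above a set limit, near 3 SD of response in nonfluorescent compounds, cut at about 42% in these data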;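 further: stock transfer was 100 nL into about 11 µL; a reference agonist was the positive control; negative values mostly stem from fluorescent compounds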
# Target sequence (P07550 whole entry, looked up): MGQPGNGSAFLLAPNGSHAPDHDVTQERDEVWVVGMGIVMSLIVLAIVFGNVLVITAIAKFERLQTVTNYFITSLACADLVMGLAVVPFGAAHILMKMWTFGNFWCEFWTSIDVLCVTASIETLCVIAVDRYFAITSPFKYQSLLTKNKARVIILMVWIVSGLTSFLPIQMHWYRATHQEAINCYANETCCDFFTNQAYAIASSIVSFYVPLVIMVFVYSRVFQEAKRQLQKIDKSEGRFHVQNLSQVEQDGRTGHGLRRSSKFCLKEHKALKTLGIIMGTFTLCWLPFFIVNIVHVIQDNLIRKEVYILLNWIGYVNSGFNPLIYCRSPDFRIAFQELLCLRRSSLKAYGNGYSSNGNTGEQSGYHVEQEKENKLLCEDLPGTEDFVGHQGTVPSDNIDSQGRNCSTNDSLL
# Calb FLC – affects C. albicans growth with fluconazole; 300,000 compounds, 0.57% hits; AID 1979; growth inhibition, % (test concentration not listed); C. albicans CaCi-2 (fluconazole-resistant clinical isolate) + fluconazole, Alamar Blue growth, 48 h;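 active means most replicates above 75%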;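 further: all wells also contain fluconazole at 8 µg/ml as a sub-toxic cotreatment; 0% = median of DMSO wells and 100% = median of geldanamycin control wells; wells of about 8 µL received 7.5 nL stock; the first replicate is given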
# * = called active by the depositor; . = no result given.
# Short keys: A = UCH37 inh; B = T cruzi repl; C = LANA-H2A inh; D = Beta2AR agonist; E = Calb FLC
SMILES: O=[N+]([O-])c1cccc(/C([O-])=C(/C(=S)Nc2cccc3ccccc23)[n+]2ccccc2)c1
  A: 3.9 | B: 10 | C: . | D: -3 | E: .

SMILES: Cc1cccc(-c2cc(N)n(-c3ccccc3)n2)c1
  A: 5.8 | B: . | C: . | D: 1 | E: -19

SMILES: O=C1c2ccc(Br)cc2C(=O)N1c1ccc(Cc2ccncc2)cc1
  A: 0.0 | B: . | C: . | D: -13 | E: -14

SMILES: COCCn1nnnc1C(CC(C)C)N1CCN(C(=O)c2ccco2)CC1 (stereo not given)
  A: 6.4 | B: . | C: . | D: -9 | E: 5

SMILES: Cc1ccc(C2CC(=O)C(C=NCCN3CCN(CC(=O)Nc4cc(C)cc(C)c4)CC3)=C(O)C2)cc1 (stereo not given)
  A: 1.5 | B: . | C: 1.3 | D: -4 | E: .

SMILES: COC(=O)c1cc(=O)c2ccc(OC)cc2o1
  A: 1.8 | B: . | C: -1.8 | D: -5 | E: .

SMILES: Cc1ccc2c(c1)C1(C(=O)N2)N2CCCC2C(C(=O)c2ccc3ccccc3c2)C12C(=O)Nc1ccccc12 (stereo not given)
  A: -0.2 | B: . | C: -17 | D: 9 | E: .

SMILES: CN1[C@@H](CC(=O)c2ccccc2)CCC[C@H]1C[C@H](O)c1ccccc1
  A: 4.0 | B: . | C: 13 | D: -1 | E: .

SMILES: COc1ccc(C2OC[C@H]3O[C@H](O)[C@H](NC(C)=O)[C@@H](O)[C@@H]3O2)cc1 (stereo not given in full)
  A: 2.0 | B: . | C: -13 | D: -9 | E: .

SMILES: COc1ccc2c(c1OC)C(=O)N1C2SC[C@H]1C(=O)NC1CC(C)(C)NC(C)(C)C1 (stereo not given in full)
  A: -21 | B: . | C: -2.6 | D: -3 | E: .

# Source: PubChem

# Only part of the results is shown. The share of hits here may be higher or lower than overall.
